# Screening results as filed in PubChem.
# SARS PLpro yeast – SARS-CoV PLP inhibition in yeast; S. cerevisiae expressing SARS-CoV PLpro, growth rescue; control for the full effect not named in the record; AID 485353; actives 0.19% (n = 330,000); Potency, µM (series often up to 32.9 µM), for inactives: at the highest dose activity, positive = growth rescue; active means well fitted rising curve with a large enough effect; inconclusive means small, poorly fitted or top-dose-only effect; inactive means no such curve, though single readings can be large or run the other way; note: 0% is about no effect; nearly all actives have a fitted effect of over 55% in size; growth read by luminescence after 48 h
# LASV entry inh – inhibitors of Lassa virus binding or cell entry | actives 1.2% (n = 300,000) | Lassa virus pseudotype entry inhibition, cell reporter; control for the full effect not named in the record | Potency, µM (top dose mostly 37.9 µM), inactives show at the top dose activity change, negative = inhibition, usual class: inhibitors; active means well fitted inhibition curve with a large enough effect; inconclusive means small, poorly fitted or top-dose-only effect, or effect the other way; inactive means flat fitted curve, though single readings scatter; tested in HEK293 cells; note: % is set by controls: 0 for no effect and ±100 for the full control effect; nearly all actives have a fitted effect of over 50% in size; luciferase read-out
# StopGo reporter – lowers the luciferase signal of an FMDV 2A StopGo reporter; human cells with a luciferase reporter of 2A StopGo recoding; control for the full effect not named in the record; Potency, µM (doses to about 57.9 µM), for the others: top-dose signal change, negative = less light; actives 1.2% (n = 410,000); AID 1159524; active = well fitted falling curve with a large enough effect; inconclusive = small, poorly fitted or top-dose-only effect; inactive = no such curve, though single readings can be large or run the other way; tested in HEK293T cells; note: % is set by controls: 0 for no effect and ±100 for the full control effect; nearly all actives have a fitted effect of over 45% in size; luciferase light after 4 h
# Cruzain inh noDet – cruzain (T. cruzi) inhibition without detergent | purified cruzain, Z-FR-AMC fluorescence, no detergent | Potency, µM, for the others: max response, negative = inhibition, most hits filed as inhibitors | actives 2.3% (n = 200,000);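 note: plate controls were enzyme without inhibitor for no effect and buffer without enzyme for full effect; nearly all actives have a fitted effect of over 40% in size; top concentration of the series not given in the record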
# Target sequence (P25779 123-467 limits assumed): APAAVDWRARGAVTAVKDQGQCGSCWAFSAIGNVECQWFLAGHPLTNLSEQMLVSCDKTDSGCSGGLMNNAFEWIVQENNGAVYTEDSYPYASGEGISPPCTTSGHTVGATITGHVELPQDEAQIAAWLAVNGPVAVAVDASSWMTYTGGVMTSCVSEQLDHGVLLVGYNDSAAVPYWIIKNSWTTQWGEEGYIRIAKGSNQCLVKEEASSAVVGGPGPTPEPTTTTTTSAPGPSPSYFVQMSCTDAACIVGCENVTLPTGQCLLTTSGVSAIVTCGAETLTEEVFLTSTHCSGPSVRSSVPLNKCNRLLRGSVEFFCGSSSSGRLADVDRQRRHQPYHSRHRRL
#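 Purified cruzain at 1.5 nM, pre-incubated 15 min with compound at room temperature in 100 mM sodium acetate pH 5.5, 5 mM DTT, 0.00005% Triton X-100. Reaction started with 2 uM Z-FR-AMC; AMC fluorescence increase over 60 s gives rate.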
# RE007 growth inh – less growth of the S. pombe RE007 Vpr strain | S. pombe RE007 Vpr strain, BacTiter-Glo ATP luminescence, 24 h; control for the full effect not named in the record | Potency, µM (series often up to 92.2 µM), for inactives: top-dose activity change, negative = less growth | actives 0.21% (n = 360,000) | AID 651644; active = well fitted falling curve with a large enough effect; inconclusive = small, poorly fitted or top-dose-only effect; inactive = no such curve, though single readings can be large or run the other way;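 note: % is set by controls: 0 for no effect and ±100 for the full control effect; nearly all actives have a fitted effect of over 50% in size; the assay follows cell death caused by Vpr and the record does not say whether a fall means rescue or toxicity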
#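 Fission yeast RE007 carrying one integrated HIV-1 vpr copy, seeded at OD 0.01 in PMG+AL medium with 23 nL pinned compound. Grown 24 h at 30 degrees; viability read by BacTiter-Glo luminescence after 5 min.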
# Cruzain Triton – inhibitors of Trypanosoma cruzi cruzain with detergent. P25779. purified cruzain, Z-FR-AMC fluorescence, 0.01% Triton. Potency, µM, without a hit: max response, negative = inhibition, actives largely listed as inhibitors. actives 0.43% (n = 200,000);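 note: plate controls were neutral wells for no effect and buffer without enzyme for full effect; nearly all actives have a fitted effect of over 40% in size; top concentration of the series not given in the record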
#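 Cysteine protease activity tested under reducing, mildly acidic conditions (100 mM sodium acetate pH 5.5, 5 mM DTT) plus 0.01% Triton X-100. Cruzain 1.5 nM; substrate Z-FR-AMC 2 uM; 15 min compound preincubation at room temperature.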
# Marburg entry inh – blocks Marburg virus binding to or entry into cells; Marburg virus pseudotyped entry inhibition, cell reporter; control for the full effect not named in the record; about a third of the inactives were read at about 46 µM; Potency, µM (doses to about 37.8 µM), without a hit: top-dose activity change, negative = inhibition, hits mostly inhibitors; actives 1.8% (n = 300,000); AID 540276; active = well fitted inhibition curve with a large enough effect; inconclusive = small, poorly fitted or top-dose-only effect, or effect the other way; inactive = flat fitted curve, though single readings scatter; tested in HEK293 cells; about a fifth of its hits are not listed in these tables; note: % is set by controls: 0 for no effect and ±100 for the full control effect; luciferase read-out
# NS1 function inh – influenza NS1 inhibition; S. cerevisiae slowed by influenza A NS1, growth recovery by OD600; Potency, µM (titrated, usually from 46.1 µM), for the others: at the top dose activity, positive = more growth; actives 0.4% (n = 270,000); AID 2326; active means well fitted rising curve with a large enough effect; inconclusive means small, poorly fitted or top-dose-only effect; inactive means no such curve, though single readings can be large or run the other way; note: nearly all actives have a fitted effect of over 50% in size
#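 S. cerevisiae expressing influenza A NS1, grown in glucose, washed, then diluted 1:100 into pH 6.0 -URA galactose medium with 23 nl compound. Growth recovery read as OD600; NS1-free strain serves as control.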
# * marks the source's active call; other numbers are inactive results; ? = inconclusive; nt = no result given; & = joins results of further samples; [ ] = dose if it differs, or a comment. Unless noted, calls come from the whole dose curve; as a rule, active = well fitted curve in the direction sought with a large enough effect; inconclusive = small, poorly fitted or top-dose-only effect, or another doubt; inactive = no such curve, though single readings can be large; an effect the other way counts as inactive or inconclusive. Potency is the fitted concentration of half-maximal effect.
SMILES,SARS PLpro yeast,LASV entry inh,StopGo reporter,Cruzain inh noDet,RE007 growth inh,Cruzain Triton,Marburg entry inh,NS1 function inh
CCCN(C(=O)Cn1nc(Cc2ccncc2)c2ccccc2c1=O)c1ccccc1C,nt,?,2%,18%,nt,-3.6%,?,nt
N#Cc1cnn(CC2CCCCC2)c1N,-3%,4%,-26%,10%,7%,1.4%,-7%,-5%
Cc1ccc(NC2=C([N+](=O)[O-])CS(=O)(=O)C2)cc1,6%,?,26%,5%,1%,-3.0%,8%,21%
COCCn1c(C)cc(C(=O)COC(=O)c2ccc(Cl)c(S(N)(=O)=O)c2)c1C,1%,?,0%,nt,0%,nt,?,nt
O=C(Cn1cnc2ccccc21)OCC(=O)N1CCCCC1,0%,4%,-21%,nt,-4%,nt,5%,nt
COc1ccccc1CC(=O)Nc1ncc(C)s1,1%,nt,28%,nt,-5%,nt,nt,-4%
CN(C)C(=S)Nc1cccc(F)c1,0%,nt,-4%,nt,1%,nt,nt,5%
CN(C)c1oc(-c2ccccc2F)nc1C#N,-30%,-1%,17%,10%,9%,-19%,12%,2%
COC(=O)c1cc(-c2cccc(OC)c2)on1,-3%,6%,19%,4%,?,5.9%,15%,-82%
Cc1ccc(S(=O)(=O)Nc2cccc(C(=O)Nc3cc(C)ccn3)c2)cc1,6%,nt,nt,4%,nt,-1.4%,nt,6%
Cc1ccc(OCC(=O)Nc2ccc(C(=O)OCc3cc(=O)n4nc(C5CC5)sc4n3)cc2)cc1,nt,?,-3%,-12%,nt,-1.4%,nt,nt
COCCCNC(=O)CCC(=O)N1Cc2ccccc2Oc2ncccc21,nt,19%[46.1 µM],-12%,-5%,nt,0.2%,nt,nt
CCC(C)[C@H](Nc1nc(-c2ccccc2)nc2c1oc1ccccc12)C(=O)O (stereo partly drawn),1%,-5%,-26%,0%,-8%,-8.2%,1%,-27%
Cc1nn(C(=O)c2ccccc2)c2c1C(=O)CC(C)(C)C2,-5%,15%,5%,-10%,8%,-2.6%,16%,-11%
Cc1cccc(N2CCN(CC(=O)Nc3ccc(-n4cnnn4)cc3)CC2)c1C,?,-7%,0%,?,-25%,0.4%,-1%,-8%
CC(=O)c1cccc(NC(=O)c2oc(=O)c3ccccc3c2-c2ccccc2)c1,nt,-11%[46.1 µM],0%,23%,nt,-5.5%,nt,nt
CCOc1ccc(NC(=O)CCC(=O)Oc2ccc(C)cc2)cc1,-2%,nt,-1%,nt,-6%,nt,nt,2%
COC(=O)c1ccc(CSc2ncnc3c2nnn3-c2ccc(F)cc2)o1,-3%,22%,2%,13%,5%,6.5%,13%,2%
COc1cccc(Cn2c(=O)cc(C)c3c(C)nn(-c4ccc(C)cc4)c32)c1,nt,-7%[46.1 µM],-22%,-7%,nt,-1.3%,nt,nt
CCCc1ncc(C(O)c2cccc(OC)c2)n1C (stereo not drawn),2%,nt,-1%,nt,13%,nt,nt,-6%
Cc1cc(N)ccc1NC(=O)CN1CCCC1,2%,nt,-24%,nt,-1%,nt,nt,2%
COc1cc(CN(C)Cc2nc3cc(C(F)(F)F)ccc3c(=O)[nH]2)ccc1OC(F)F,-2%,-7%,-5%,nt,1%,nt,13%,nt
Cc1ccc(CN2CCCOCCS2(=O)=O)cc1,8%,nt,15%,nt,-1%,nt,nt,-3%
COc1ccc(S(=O)(=O)NCc2c(-c3ccccc3)noc2C)c(OC)c1,-1%,-2%,51%[activator],nt,-23%,nt,0%,4%
CCOC(=O)C1C(=O)CC(C)(O)C(C(=O)OCC)C1c1ccc(Br)o1 (stereo not drawn),-2%,5%,-18%,8%,7%,0.8%,-19%,-9%
SMILES,SARS PLpro yeast,LASV entry inh,StopGo reporter,Cruzain inh noDet,RE007 growth inh,Cruzain Triton,Marburg entry inh,NS1 function inh
CC(=O)Nc1cccc(/C(C)=N/NC(N)=S)c1,1%,20%,11%,nt,19%,nt,1%[46.1 µM],nt
COc1ccccc1C(=O)NCc1ccc2c(c1)CCN2C(=O)c1ccncc1,nt,-26%[46.1 µM],25%,-6%,nt,1.2%,nt,nt
O=c1[nH]ncc(N2CCN(C(c3ccccc3)c3ccccc3)CC2)c1Cl,-40%,-11%,?,-4%,22%,-12%,?,-39%
O=C(CCC1CCCN(C(=O)CCCc2ccccc2)C1)N1CCN(c2ccccn2)CC1 (stereo not drawn),-5%,nt,?,nt,0%,nt,nt,-7%
COc1ccc(CN2CCN(S(=O)(=O)c3ccc(F)cc3)CC2)cc1OC,5%,-24%,-30%,3%,-7%,-0.4%,-1%&-2%,-7%
Cc1c(NC(=O)/C(C#N)=C/c2ccc(-c3ccccc3Cl)o2)c(=O)n(-c2ccccc2)n1C,15%,7%,-21%,6%,-7%,?,?,21%
CCN(CC)c1ccc(NC(=O)CN(C)S(=O)(=O)c2cccc3nsnc23)c(C)c1,nt,3%[46.1 µM],-24%,-3%,nt,1.0%,?,nt
Cc1sc(NC(=O)C2CCCCC2C(=O)O)c(C(N)=O)c1-c1ccc(C(C)C)cc1 (stereo not drawn),0%,-17%,-3%,17%,6%,-11%,23%,?
COc1ccc(-c2c(NC(=O)c3ccco3)n(-c3ccccc3)nc(C)c2=O)cc1,-2%,-7%,-2%,nt,-17%,nt,15%,1%
Cn1cc(SCC(=O)NCc2ccc3c(c2)OCO3)c2ccccc21,-6%,nt,-23%,1%,2%,-6.4%,nt,-26%
C/C(CC(=O)NCC(C)C)=N\NC(=O)COc1cc(C)c(Br)cc1Br,-24%,-2%,-11%,?,-15%,-6.5%,1%,-14%
Cc1ccc(-c2csc(NC(=O)c3ccno3)n2)cc1,-5%,23%,19%,-19%,?,-15%,13%,-95%
O=C(Cn1cnc2c(cnn2-c2ccc(F)cc2)c1=O)NCc1ccco1,2%,?,-19%,-10%,1%,0.7%,?,7%
O=C(c1ccc(OC2CCN(Cc3ccccc3OC(F)F)CC2)cc1)N1CCCC1,26%,nt,-11%,nt,17%,nt,nt,7%
O=C(c1cccs1)N1CCN(S(=O)(=O)N2CCOCC2)CC1,1%,21%,12%,-4%,11%,3.2%,-1%,?
CC(=O)c1ccc(S(=O)(=O)NCCC(=O)OCC(=O)NCCc2ccccc2)cc1,-1%,5%,3%,nt,2%,nt,?,7%
Cc1nnc(SCC(N)=O)n1CC1CCCO1 (stereo not drawn),1%,-3%,-11%,4%,16%,11%,4%,-2%
CCCCCCn1c(CN2CCN(C(=O)c3ccco3)CC2)nc2c1c(=O)n(C)c(=O)n2C,-9%,nt,?,?,-10%,1.6%,nt,?
O=C(Cc1ccccc1)NNC(=O)Nc1ccc(Cl)c(Cl)c1,1%,?,9%,-1%,4%,0.1%,?,-3%
Cc1nc(Oc2ccc(S(=O)(=O)N3CCOCC3)cc2Cl)c2c3c(sc2n1)CCCC3,11%,?,0%,?,?,-3.9%,?,28%
COc1ccccc1OCc1nc(-c2cccc([N+](=O)[O-])c2)no1,-7%,?,-4%,nt,?,nt,?,4%
COc1ccc(NC(C)C(=O)N/N=C/c2ccc([N+](=O)[O-])s2)cc1 (stereo not drawn),-28%,-11%,-24%,nt,-23%,nt,-9%[46.1 µM],-9%
Cc1cc(F)ccc1NC(=O)c1cccnc1,0%,-4%[46.1 µM],-10%,nt,2%,nt,-12%[46.1 µM],5%
CC(C)CN(CC(C)C)S(=O)(=O)c1ccc(C(=O)Nc2sc3c(c2C(N)=O)CC(C)(C)NC3(C)C)cc1,nt,-27%[46.1 µM],-6%,29%,nt,-7.0%,nt,nt
Cc1cc(NC(=O)CSc2nnnn2-c2ccc(C)c(Cl)c2)no1,0%,-8%,-3%,nt,3%,nt,1%[46.1 µM],-5%
SMILES,SARS PLpro yeast,LASV entry inh,StopGo reporter,Cruzain inh noDet,RE007 growth inh,Cruzain Triton,Marburg entry inh,NS1 function inh
Cc1nc2cc([N+](=O)[O-])ccc2c(=O)n1-c1cccc(Br)c1,nt,-2%,?,nt,0%,nt,14%,nt
CCOC(=O)c1nnn(-c2nonc2-n2cccc2)c1-c1cccc([N+](=O)[O-])c1,-2%,-2%,-16%,nt,11%,nt,-15%,nt
Cc1cc(C[n+]2ccsc2N)c2ncccc2c1,4%,nt,-13%,nt,9%,nt,nt,-5%
CCC(C)NC(=O)Cn1ncc2c([nH]c3ccc(C)cc32)c1=O (stereo not drawn),nt,?,-5%,6%,nt,-0.8%,nt,nt
CS(=O)(=O)c1ncc(CO)n1Cc1ccccc1,0%,1%[46.1 µM],-1%,nt,5%,nt,15%[46.1 µM],6%
O=C(CCCN1C(=O)/C(=C/c2cccc(Br)c2)SC1=S)Nc1ccccn1,3%,-10%,0%,25µM*,-5%,-4.3%,?,-1%
O=C1C=C(c2ccccc2)C(=O)N1Nc1ccccc1,-35%,?,35µM*,7%,?,5.5%,-1%,-226%
O=C(Nc1ccccc1N1CCOCC1)C1Cc2ccccc2CN1C(=O)c1ccco1 (stereo not drawn),2%,-7%,-7%,1%,15%,-2.1%,-11%[46.1 µM],6%
CC(C)Cn1c(NCCN(C)C)nc2c1c(=O)[nH]c(=O)n2C,17%,1%,nt,-2%,8%,3.6%,-29%,3%
Nc1nc(NC2CCCCC2)nc(NCCO)c1[N+](=O)[O-],-1%,?,7%,nt,-3%,nt,18%[46.1 µM],3%
COc1cc2c(cc1OC)C1=C(C#N)CCC(=NC(=O)c3ccco3)N1CC2,0%,1%,9%,nt,-15%,nt,1%[46.1 µM],6%
Oc1ccc(N=Nc2n[nH]c(-c3ccc(Br)cc3)n2)cc1,7%,?,18%,-5%,-13%,-2.2%,?,3%
Cc1cccc(NC(=O)CN2C(=O)c3ccccc3S2(=O)=O)n1,-9%,1%,-6%,nt,-17%,nt,2%[46.1 µM],nt
CC(C)Cc1nc2oc3c(=O)[nH]cnc3c2c2c1CCC2,-4%,20%,11%,-6%,-3%,-0.2%,?,-1%
COc1ccc(CCNC(=O)C2CC(=O)N(C3CCCCC3)C2)cc1OC (stereo not drawn),2%,nt,65%[activator],nt,-1%,nt,nt,-4%
Cc1nc(-c2ccccc2)sc1-c1ccc(SCC(=O)NCc2ccccc2Cl)nn1,nt,13%[46.1 µM],-17%,1%,nt,-0.9%,nt,nt
